AF4-AF9 inh – blocks AF4 peptide binding to human AF9; AID 651704; inhibition, % at 10 µM; 0.47% of 350,000 active; AlphaScreen, biotin-AF4 peptide binding to FLAG-AF9; P42568;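 active = every replicate reaching a set inhibition limit, whatever the replicate mean, cut at about 25% in these data; inconclusive = mean inhibition reaches that limit but some replicates miss it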;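 note: 0% = plate neutral control median and 100% = total signal loss; the record names both 10 and 1 µM as test concentration; the first replicate is given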
HNF4A DNA FP – change in binding of human HNF4 alpha to DNA. HNF4a-FITC DNA binding, fluorescence polarization, 1 h. 0.3% of 360,000 active. P41235. AID 1224865. activity change, % at 10 µM; in the data active = activity change above about 30%, passing the limit was not always enough;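 note: controls were the assay level and a saturating level of protein; the project sought stronger binding though the title names inhibitors; some compounds called inactive have numbers as strong as hits; positive values seem to mean higher polarization but the record does not say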
Target sequence (P41235 whole entry, looked up): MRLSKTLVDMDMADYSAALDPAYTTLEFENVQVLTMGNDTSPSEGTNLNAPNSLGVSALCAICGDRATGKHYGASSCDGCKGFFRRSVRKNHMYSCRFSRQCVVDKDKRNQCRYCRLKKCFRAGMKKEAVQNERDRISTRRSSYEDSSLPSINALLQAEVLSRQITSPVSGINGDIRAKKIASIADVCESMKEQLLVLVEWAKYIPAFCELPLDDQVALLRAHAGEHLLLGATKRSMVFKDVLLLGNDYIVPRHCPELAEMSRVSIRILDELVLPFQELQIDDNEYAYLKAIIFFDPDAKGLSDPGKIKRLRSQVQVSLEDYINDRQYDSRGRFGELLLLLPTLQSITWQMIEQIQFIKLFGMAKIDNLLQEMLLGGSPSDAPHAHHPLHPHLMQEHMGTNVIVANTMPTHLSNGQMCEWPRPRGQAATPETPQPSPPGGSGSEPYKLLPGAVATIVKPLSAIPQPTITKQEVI
FGF22 binding – binders of recombinant human FGF22 by thermal shift. Q9HCT0. SYPRO orange fluorescence; percent of sucrose octasulfate shift, DMSO zero. calls only at 9.99 µM. 1.5% of 340,000 active. AID 651658;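 active = melting point raised past a set limit in the mean and every replicate; inconclusive = no clear call; three in four hits are not shown here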
Target sequence (Q9HCT0 whole entry, looked up): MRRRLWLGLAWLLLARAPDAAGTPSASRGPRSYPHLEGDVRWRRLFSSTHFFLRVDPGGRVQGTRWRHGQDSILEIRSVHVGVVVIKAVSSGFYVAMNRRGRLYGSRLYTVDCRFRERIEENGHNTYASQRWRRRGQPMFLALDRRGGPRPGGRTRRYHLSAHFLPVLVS
E coli growth – E. coli growth inhibition. OD600 absorbance (no concentration beside the values). 0.21% of 330,000 active. Escherichia coli growth, OD600, 23 h; active compounds read low. AID 1053175;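 active = OD600 absorbance below the run mean of sample wells minus 3.6 SD, in any replicate, cut at about 0.56 in these data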;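 note: stock transfer was 300 nL into about 60 µL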
RanGTP-Impb inh – inhibitors of RanGTP-importin-beta interaction, primary screen, biochemical, FRET, CFP-Ran, YFP-importin-beta, homogeneous. inhibition, % (concentration not given with the values). 1.1% of 300,000 active. cell-free CFP-Ran/YFP-importin-beta FRET ratio;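 active = most replicates above 15%; inconclusive = exactly half above 15%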;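 note: 0% = DMSO wells and 100% = Ran loaded with GDP instead of GTP; wells of about 40 µL received 100 nL stock; the first replicate is given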
UCH37 inh – blocks the human deubiquitinase UCH37; Q9Y5K5; purified proteasome/UCH37, Ub-AMC cleavage fluorescence; inhibition, % (no concentration beside the values); 0.33% of 330,000 active;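 active = mean of two replicates above 20%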;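 note: 0% = compound-free wells with enzyme and 100% = wells lacking proteasome; stock transfer was 100 nL into about 20 µL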
Target sequence (Q9Y5K5 whole entry, looked up): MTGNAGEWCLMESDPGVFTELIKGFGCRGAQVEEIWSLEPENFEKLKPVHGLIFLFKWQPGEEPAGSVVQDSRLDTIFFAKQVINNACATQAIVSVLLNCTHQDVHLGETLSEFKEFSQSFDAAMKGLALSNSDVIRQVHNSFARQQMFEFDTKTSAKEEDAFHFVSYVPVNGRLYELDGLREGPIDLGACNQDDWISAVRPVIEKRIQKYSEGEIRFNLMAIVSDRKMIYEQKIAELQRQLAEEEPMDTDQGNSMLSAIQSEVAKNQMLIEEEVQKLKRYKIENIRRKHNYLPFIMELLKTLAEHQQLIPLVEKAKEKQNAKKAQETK
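Material: human UCH37 enzyme supplied as purified proteasome complex / Amount: 0.15 nM proteasome as dispensed / Buffer or medium: pH 7.4 Tris-HCl (50 mM) with ovalbumin, ATP-MgCl2, DTT / Times: preincubation 30 min, reaction 25 min, room temperature / Technique: AMC fluorescence from Ub-AMC cleavage, excitation 355 nm, emission 460 nm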
Vif TR-FRET – inhibitors of Vif binding to APOBEC3G peptide, primary screen, biochemical, TR-FRET, GST-Vif 1-94, biotin-A3G peptide, dose response retest (AID 1117319); TR-FRET GST-Vif / biotin-A3G peptide binding; higher % means a stronger effect; test concentration not given here; strong numbers were not always called active; inhibition, %, or IC50 in µM where a hit was titrated; 0.57% of 260,000 active;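 active = above the screen mean plus three standard deviations and confirmed in dose response; inconclusive = results disagree or hit not tested in dose response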;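 note: Vif residues 1-94 fused to GST binding biotinylated APOBEC3G peptide 110-148; 0% = full assay without inhibitor and 100% = GST in place of GST-Vif; retest series ran down from 100 µM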
* hit, by the source's call; i = inactive; ? = inconclusive; nt = no result given; & = joins results of further samples. Some of the compounds tested; rates above refer to the full screens.

SMILES	AF4-AF9 inh	HNF4A DNA FP	FGF22 binding	E coli growth	RanGTP-Impb inh	UCH37 inh	Vif TR-FRET
COCCNC(=O)C1CCC(CNS(=O)(=O)c2c(C)cc(C)cc2C)CC1 (stereo not given)	0.0	2.5	i	0.68	4.0	-0.1	0%
CC(C)(C)OC(=O)N1CCN(C(c2ccnc3ccccc23)c2nnnn2-c2ccc3c(c2)OCCO3)CC1 (stereo not given)	2.2	-0.2	i	nt	nt	nt	nt
COc1cc(CCC(=O)OCC(=O)N2CC(=O)Nc3ccccc32)cc(OC)c1OC	-3.3	-0.5	i	0.73	nt	2.4	-2%
CN(C)C(CNC(=O)c1ccc(-c2ccccc2)cc1)c1ccccc1 (stereo not given)	8.8	0.6	i	0.66	-0.3	4.4	-7%
CCCCn1c(N)c(N(CCOC)C(=O)c2oc3c(Cl)cccc3c2C)c(=O)[nH]c1=O	0.0	-2.0	i	nt	nt	nt	1%
COc1cc(C(=O)NNC(=O)COc2ccc(Br)cc2)ccc1OCC(=O)N1CCOCC1	4.5	0.4	i	0.67	nt	0.0	nt
NC(=O)c1cc2ccccc2o/c1=N/NC(=O)c1ccccc1	0.2	1.8	i	nt	-2.7	nt	-4%
Cc1ccn2c(NC(=O)c3ccccc3)c(-c3cccs3)nc2c1	nt	1.5	nt	0.63	1.8	1.2	23%
c1ccc2c(c1)NC1(CCCC1)n1c-2nc2ccccc21	3.4	1.2	i	0.62	4.0	i	32%
CC(C)CC(C)NNC(=O)c1cc2ccccc2[nH]1 (stereo not given)	nt	-0.3	nt	0.66	2.6	4.2	4%
COc1ccc(NC(=O)CS(=O)CC(=O)Nc2ccc(F)cc2F)cc1 (stereo not given)	4.1	5.5	i	0.64	1.5	3.8	nt
Cc1cc(C)n(/N=C/c2cc(Cl)cc(Cl)c2O)c(=O)c1	-0.8	-4.1	i	nt	?	nt	nt
Clc1ccccc1-c1nnc(-c2ccc3c(c2)OCO3)o1	-0.7	-2.2	nt	0.68	5.9	-51	-12%
CCCCCN(C(=O)NC(=O)Nc1cccc(C)c1C)S(C)(=O)=O	-0.7	-1.0	nt	0.7	-0.5	3.3	-3%
Cc1ccc2[nH]cc(CCNC(=O)c3cccnc3)c2c1	-31	-2.8	i	0.68	-2.8	4.1	-3%
N=c1c(C(=O)NC2CCCC2)cc2c(=O)n3ccccc3nc2n1C1CCCC1	nt	5.1	nt	0.67	182*	i	9%
O=S(=O)(NCc1cccs1)c1ccc(Br)cc1	-1.3	3.4	i	0.66	3.8	-1.2	-1%
Cc1ccc(C(=O)OCC(=O)NC2CCCCCCC2)cc1C	-15	-0.8	i	nt	nt	nt	-3%
Cc1ccc(NC(=O)N[C@H](C(=O)O)C(C)C)c(C)c1	-0.2	-3.1	i	0.67	-4.6	-2.0	5%
CC(C)CC1NC(=O)N(Cc2cc(=O)n3ccsc3n2)C1=O (stereo not given)	-1.9	-2.9	i	0.63	0.6	-1.6	9%

3 records drawn at random from those above:
SMILES	AF4-AF9 inh	HNF4A DNA FP	FGF22 binding	E coli growth	RanGTP-Impb inh	UCH37 inh	Vif TR-FRET
Cc1ccc2[nH]cc(CCNC(=O)c3cccnc3)c2c1	-31	-2.8	i	0.68	-2.8	4.1	-3%
COc1ccc(NC(=O)CS(=O)CC(=O)Nc2ccc(F)cc2F)cc1 (stereo not given)	4.1	5.5	i	0.64	1.5	3.8	nt
Clc1ccccc1-c1nnc(-c2ccc3c(c2)OCO3)o1	-0.7	-2.2	nt	0.68	5.9	-51	-12%

Next part.
SMILES	AF4-AF9 inh	HNF4A DNA FP	FGF22 binding	E coli growth	RanGTP-Impb inh	UCH37 inh	Vif TR-FRET
CC(C)(C)c1ccc(S(=O)(=O)NC(=O)C2(C)CCN2C(=O)CC2CCCCC2)cc1 (stereo not given)	0.2	2.8	i	nt	nt	nt	nt
COc1ccc(NC(=O)CN2C(=O)C(C)Oc3ccccc32)c(OC)c1 (stereo not given)	nt	0.5	nt	0.7	-1.1	0.1	-3%
S=C(NCC1CCCO1)NC1CC1 (stereo not given)	-2.0	-2.4	i	0.72	2.4	1.9	-7%
CCc1ccc(CN(C)Cc2nc(Cc3ccc(OC)c(OC)c3)no2)nc1	1.2	-2.6	i	0.67	-1.0	-0.1	-3%
COC(=O)C1C2C=CC3(CN(c4cccc(Cl)c4)C(=O)C13)O2 (stereo not given)	-2.5	3.9	i	0.73	0.2	1.0	10%
COc1ccc2oc(C(=O)Nc3ccccc3N3CCOCC3)c(C)c2c1	-12	2.8	i	0.72	4.6	-64	-2%
Cc1ccc(C(c2nnnn2C2CCCCC2)N(C)C2CCCCC2)cc1 (stereo not given)	nt	-6.4	nt	0.67	?	1.2	-3%
NNC(=O)C1c2ccccc2Oc2ccccc21	-0.5	1.4	i	0.64	4.3	3.8	nt
CSc1nc2ccc(NC(=O)c3nn(C(C)C)c(=O)c4ccccc34)cc2s1	-1.2	2.4	i	0.7	-1.6	-1.1	-2%
CCOC(=O)C(=O)N(Nc1ccccc1C)c1ccccc1C	0.4	0.2	i	0.73	-1.1	5.3	nt
O=C(CCc1nnc(-c2ccccc2)o1)NCc1c(F)cccc1F	-0.7	0.8	i	0.69	-2.3	1.4	2%
O=c1onc(-c2ccc(Cl)cc2)n1Cc1ccc(F)cc1	-12	0.7	i	0.64	-1.2	5.1	nt
COC(=O)c1sccc1NC(=O)Cc1ccc(Br)cc1	nt	-2.1	nt	0.67	1.7	4.6	-8%
CCOC(=O)C1CCN(C(=O)c2ccc(NC(=O)C3CCCO3)cc2)CC1 (stereo not given)	nt	1.0	nt	0.69	-1.6	0.7	0%
COC(=O)c1c(NC(=O)Nc2ccc(Cl)cc2)sc(C)c1C	nt	4.8	nt	0.75	nt	-17	19%
O=C1CN(C(=O)c2c(F)cccc2F)C(c2ccccc2)c2cc(Br)ccc2N1 (stereo not given)	3.1	-2.7	i	0.61	-1.7	2.9	0%
CCOCc1cnc(C)nc1NCC(=O)c1c(C)[nH]c2ccc(OC)cc12	nt	1.5	nt	0.71	6.1	2.6	-4%
O=C(OCn1nnc2ccccc2c1=O)c1cccc(S(=O)(=O)N2CCOCC2)c1	3.2	2.5	i	0.69	nt	3.1	-6%
COc1cc(OC)c(C(=O)NCC2CCCO2)cc1OC (stereo not given)	-1.4	5.4	i	0.73	2.0	0.0	13%
CCC(Sc1n[nH]c(=O)[nH]c1=O)C(=O)OCc1ccccc1 (stereo not given)	nt	-5.8	nt	0.73	0.1	5.8	-2%
CCCCOc1ccccc1Cn1c(=O)oc2ccc(C)cc21	nt	-1.7	nt	0.65	2.9	0.9	1%&-1%
COC(=O)Nc1ccc(S(=O)(=O)Nc2cc(C(F)(F)F)c[nH]c2=O)cc1	0.7	2.9	i	0.71	2.2	3.3	nt
COc1ccc(C(=O)N2CCCC(CCC(=O)NCc3ccc(F)c(F)c3)C2)cc1F (stereo not given)	-1.1	2.5	i	0.66	-0.6	1.9	11%
COc1ccc(-n2ncc3c(N4CCN(Cc5ccccc5)CC4)ncnc32)cc1	3.5	-3.2	i	0.64	-0.1	-6.9	nt
N#CC(Nc1ccccc1)c1ccccc1OCc1ccccc1 (stereo not given)	nt	0.4	nt	0.66	2.3	6.1	-5%
O=S1c2ccccc2Nc2ccccc21	1.0	2.5	i	0.6	-1.8	0.4	nt
CNC(=O)CC1C(=O)N(Cc2ccccc2)C(=S)N1NC(=O)c1cccc(F)c1 (stereo not given)	3.0	-0.9	i	0.69	-3.0	-1.6	nt
COc1ccc(Nc2nc3ccccc3c(=O)s2)c(OC)c1	nt	-1.2	nt	0.7	0.8	2.2	-4%
O=C(CCNC(=O)OCc1ccccc1)NC1CCCCCC1	-7.1	-1.1	i	0.69	0.6	5.0	-7%
O=C(Nc1ccc2nc([C@@H]3O[C@H](CO)[C@@H](O)[C@H](O)[C@H]3O)[nH]c2c1)NC(c1ccccc1)c1ccccc1	-4.6	-5.9	i	nt	nt	nt	nt
Cc1ccc(-n2cc(CNCCCn3ccnc3C)c(-c3ccc(F)cc3)n2)cc1	26*	1.3	i	0.6	2.8	2.4	3%
C=CCn1c(C)cc(C(=O)COC(=O)/C=C/c2ccc(OC)cc2)c1C	-1.5	0.2	i	0.69	-4.1	1.5	0%
CCNC(=O)NC1(C(=O)Nc2ccc3c(c2)CCC3)CCCCC1	nt	2.7	nt	0.74	-2.0	4.1	-12%
Cc1c(NC(=O)C(C)C)cccc1-c1nc2ncccc2o1	-0.4	-0.8	i	0.65	-3.2	3.6	nt
Cc1ccccc1C(=O)Nc1ccc(O)c2c(=O)cc(-c3ccccc3Cl)oc12	0.9	0.2	i	0.66	3.5	1.2	nt
CCOc1ccc(N=Nc2c(C)noc2C)cc1	-4.9	-2.7	i	0.65	nt	-0.2	?
O=C(CCc1nc2ccccc2[nH]c1=O)OCc1ccc(S(=O)(=O)N2CCOCC2)cc1	-6.3	2.4	i	0.63	0.9	-18	0%
O=C(CSc1nnc(Cn2nnc3ccccc32)o1)Nc1ccc(Cl)cc1	nt	2.8	nt	0.71	-0.8	-0.3	-2%
CCN(CC)S(=O)(=O)c1cc(C)c(C)cc1OCC(=O)NC1CCCC1	-1.4	-1.4	i	0.69	1.1	2.2	nt
CCNc1nc(NC(C)(C)C)nc(N(C#N)CC)n1	nt	-0.3	nt	0.7	-4.0	1.5	-3%
C=CCNC(=O)N1CCC(n2nccc2NC(=O)CCCc2ccccc2)CC1	-2.5	1.4	i	0.65	4.8	-0.1	0%
C/C(=N\NC(=O)c1cccc(N/N=C(\C)c2ccco2)c1)c1ccco1	2.9	-25	i	nt	?	nt	nt
COc1cccc(-c2csc(NC3OC(=O)c4c3ccc(OC)c4OC)n2)c1 (stereo not given)	0.7	-11	nt	0.64	-0.6	9.8	nt
Cc1cc(C)nc(-n2nc(C)c(Oc3ccccc3O)c2C)n1	nt	1.9	nt	0.71	-0.3	0.8	-6%
NS(=O)(=O)c1ccc(NC(=O)CN2CCCc3ccccc32)cc1	0.8	12	i	0.7	-9.8	0.4	9%
CCOC(=O)c1cc2sccc2n1CC(=O)N1CCCC1	-27	-0.7	i	0.68	-0.2	-0.2	-1%
Cc1ccc(CC2CC(=O)N(c3nc4ccccc4s3)C2=O)cc1 (stereo not given)	-0.6	0.1	i	0.67	2.5	0.0	-6%
CC(=O)Nc1cc(C(N)=O)c(Cl)cc1Cl	nt	1.6	nt	0.67	-1.0	-1.4	-4%
Cc1ccc(C(=O)NCC(=O)OC(C)C(=O)Nc2ccccc2[N+](=O)[O-])s1 (stereo not given)	0.6	0.8	i	0.67	nt	2.6	nt
O=C(O)c1ccccc1CSc1ncccc1C(=O)O	-3.1	2.9	i	0.69	2.1	5.4	-6%

(further entries)
SMILES	AF4-AF9 inh	HNF4A DNA FP	FGF22 binding	E coli growth	RanGTP-Impb inh	UCH37 inh	Vif TR-FRET
CC(=O)OCC1OC(n2ncc(=O)n(Cc3ccccc3)c2=O)C(OC(C)=O)C1OC(C)=O (stereo not given)	0.2	2.6	i	0.68	-0.5	2.7	-12%
O=C(Oc1ccccc1)c1cccc(N2C(=O)CCC2=O)c1	nt	1.0	nt	0.66	1.9	0.5	-1%
COC(=O)c1ccc(Cn2nc(-c3ccc(C)c(C)c3)ccc2=O)cc1	-2.3	-0.9	i	0.69	-5.5	-7.0	8%
COc1ccccc1OCc1nnc(SCC(=O)NCc2ccco2)n1Cc1ccco1	nt	-17	nt	nt	-3.2	nt	23%
Cc1cc(C)c(C)c(OCCOCCN2CCOCC2)c1	nt	3.3	nt	0.66	-0.8	-1.3	-4%
CC(=O)c1ccc(S(=O)(=O)N(C)CC(=O)Nc2cccc(S(=O)(=O)N3CCCC3)c2)cc1	-8.9	3.3	i	0.66	nt	1.4	nt
COC(=O)CSc1nc(N)c(C#N)c(-c2ccco2)c1C#N	nt	6.2	nt	0.74	3.2	-27	-10%

Screening results as filed in PubChem.
